# PREPL inhibitor: inhibitors of human prolyl oligopeptidase-like enzyme PREPL; recombinant PREPL, fluorescence polarization activity-based probe; inhibition, % at 5.96 µM; 0.68% of 320,000 active; in the data active = inhibition above about 43%;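 note: 0% = enzyme with DMSO and 100% = wells lacking enzyme; many of its hits are not listed in these tables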
# Target sequence (Q4J6C6 whole entry, looked up): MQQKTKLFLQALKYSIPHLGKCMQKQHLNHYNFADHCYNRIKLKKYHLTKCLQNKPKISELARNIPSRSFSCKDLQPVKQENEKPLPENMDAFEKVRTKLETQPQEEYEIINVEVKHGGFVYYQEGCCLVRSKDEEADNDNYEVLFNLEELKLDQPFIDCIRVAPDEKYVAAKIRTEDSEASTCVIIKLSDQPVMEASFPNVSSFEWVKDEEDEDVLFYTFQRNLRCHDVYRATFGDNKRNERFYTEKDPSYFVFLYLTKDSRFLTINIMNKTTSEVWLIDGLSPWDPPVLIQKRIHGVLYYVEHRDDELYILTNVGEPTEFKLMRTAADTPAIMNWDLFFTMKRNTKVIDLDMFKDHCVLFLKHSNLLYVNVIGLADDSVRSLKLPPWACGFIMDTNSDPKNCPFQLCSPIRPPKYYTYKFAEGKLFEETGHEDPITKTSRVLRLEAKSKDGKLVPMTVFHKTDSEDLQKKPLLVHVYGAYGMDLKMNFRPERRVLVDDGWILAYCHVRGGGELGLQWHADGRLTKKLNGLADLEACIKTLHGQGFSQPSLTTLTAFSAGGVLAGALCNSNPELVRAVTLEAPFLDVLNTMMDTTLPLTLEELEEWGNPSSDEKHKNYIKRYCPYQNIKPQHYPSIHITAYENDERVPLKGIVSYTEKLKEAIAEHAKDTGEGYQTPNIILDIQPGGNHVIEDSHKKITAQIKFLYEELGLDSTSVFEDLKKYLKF
# LYPLA1 inh: counter-screen for PME1 inhibitors: inhibitors of human LYPLA1 | O75608 | recombinant LYPLA1, FP-Rh probe fluorescence polarization | inhibition, % at 5.9 µM | 0.16% of 320,000 active | AID 2174;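 active = inhibition above the mean of all tested compounds plus 3 SD, set per campaign, cut at about 14% in these data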;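 note: inhibitors block serine hydrolase probe labeling of LYPLA1 so polarization falls; 0% = enzyme with DMSO and 100% = wells lacking LYPLA1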
# PAD4 inh: blocks human protein arginine deiminase 4; recombinant PAD4, RCA probe fluorescence polarization; AID 485272; 0.41% of 330,000 active; inhibition, % at 6.36 µM;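 active = percent inhibition above a cutoff equal to the mean of all tested compounds plus 3 SD, cut at about 15% in these data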;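 note: 0% = PAD4 with RCA probe and DMSO and 100% = probe without PAD4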
# LYPLA2 counter: counter-screen for PME1 inhibitors: inhibitors of human LYPLA2 | O95372 | recombinant LYPLA2, FP-Rh probe fluorescence polarization | inhibition, % at 5.9 µM | 0.38% of 320,000 active | AID 2177;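 active = inhibition above the screen-wide mean plus 3 SD, limit set per campaign, cut at about 26% in these data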;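 note: 0% = LYPLA2 with DMSO and 100% = wells lacking LYPLA2 enzyme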
# PAFAH1B3 inh: blocks human PAF acetylhydrolase 1B catalytic subunit 3; Q15102; recombinant PAFAH1B3, FP-rhodamine probe, fluorescence polarization; inhibition, % at 3.39 µM; 0.28% of 340,000 active;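 active = inhibition above the screen-wide average of all tested compounds plus 3 SD, cut at about 25% in these data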;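 note: 0% = enzyme with DMSO only and 100% = wells lacking PAFAH1B3 protein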
# GSTO1 counter: GSTO1 inhibition, counter-screen for RBBP9 inhibitors; 1.1% of 300,000 active; recombinant GSTO1, activity-based probe fluorescence polarization; AID 1974; inhibition, % at 5.96 µM;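 active = inhibition above the campaign mean inhibition plus 3 SD, cut at about 35% in these data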;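 note: 0% = GSTO1-1 with DMSO and 100% = wells lacking GSTO1-1 enzyme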
# Target sequence (P78417 whole entry, looked up): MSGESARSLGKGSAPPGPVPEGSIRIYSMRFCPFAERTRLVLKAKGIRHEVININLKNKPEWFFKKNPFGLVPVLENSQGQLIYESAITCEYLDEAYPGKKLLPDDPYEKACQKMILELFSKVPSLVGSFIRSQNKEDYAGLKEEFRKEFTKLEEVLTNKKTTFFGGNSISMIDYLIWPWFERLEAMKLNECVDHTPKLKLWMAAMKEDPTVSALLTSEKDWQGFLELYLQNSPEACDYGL
# PAFAH2 FP inh: PAFAH2 (human) inhibition; recombinant PAFAH2, FP-rhodamine activity probe, fluorescence polarization; inhibition, % at 3.39 µM; 0.99% of 340,000 active; AID 492956;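 active = inhibition above the mean over all tested compounds plus 3 SD, cut at about 30% in these data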;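 note: inhibitors block probe labeling of enzyme so polarization drops; 0% = enzyme with DMSO and 100% = wells lacking PAFAH2 protein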
# pPAFAH inh: pPAFAH (human) enzyme inhibition. 1.5% of 330,000 active. inhibition, % at 3.39 µM. recombinant pPAFAH, FP-rhodamine probe fluorescence polarization. Q13093;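 active = inhibition above the mean inhibition across the screen plus 3 SD, cut at about 25% in these data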;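 note: inhibitors block binding of the rhodamine activity-based probe so polarization drops; 0% = enzyme with DMSO and 100% = wells lacking pPAFAH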
# Active calls of the source: *; nt = not tested or not shown. A portion of the library; count on the stated rates, not on these rows.
# Every second line gives: PREPL inhibitor, LYPLA1 inh, PAD4 inh, LYPLA2 counter, PAFAH1B3 inh, GSTO1 counter, PAFAH2 FP inh, pPAFAH inh
COC(C(=O)Nc1ccnn1C1CCN(Cc2ccc(Cl)s2)CC1)c1ccccc1 (stereo unspecified)
 : 18, 2, 1, 4, 0, -6, -3, 1
COc1cc2c(cc1OC)CN(C(=O)CCCOc1ccc(Cl)cc1Cl)CC2
 : 11, 1, 3, 1, -3, 1, -3, 1
O=C(Nc1ccc(N2CCOCC2)cc1N1CCOCC1)c1ncoc1-c1cccc(F)c1
 : 3, 1, -3, 0, 8, 0, -1, -2
COc1ccccc1C(=O)NCCC(=O)Nc1ccc(S(=O)(=O)N2CCC(C)CC2)cc1
 : -2, -3, 1, -1, 7, nt, -11, 2
CCCCCCC(NC(=O)Cc1ccc2ccccc2c1)C(=O)O (stereo unspecified)
 : nt, nt, -2, nt, 4, nt, -2, 7
CC(C)c1c(O)nc(SCCOc2ccc(Cl)cc2)[nH]c1=O
 : 10, 3, 0, 10, 1, 10, 0, 5
COc1ccc(OC)c(NS(=O)(=O)c2ccc3c(c2)C(C)(C)C(=O)N3C)c1
 : 10, 2, -3, -3, 15, 0, 2, -7
O=C(O)CC(NC(=O)C1c2ccccc2Oc2ccccc21)c1ccc(Cl)cc1 (stereo unspecified)
 : -7, -2, 1, 3, 10, 16, 0, 2
CCC(C)(C)C1CCc2[nH]nc(C(=O)O)c2C1 (stereo unspecified)
 : -17, 0, 3, 4, 11, -2, 7, 1
CC(=O)Nc1ccc(N(C(=O)c2ccccn2)C(C(=O)NC2CCCCC2)c2ccc(F)cc2)cc1 (stereo unspecified)
 : -4, -2, -3, -6, -3, 2, 3, -1
NC(=O)c1cc(S(=O)(=O)NCCc2ccc(Cl)cc2)cs1
 : -36, -4, -3, -3, 3, 9, 5, 6
Cc1cc(C)nc(N2N=C(CSc3ccc(Cl)cc3)CC2=O)n1
 : -3, -2, -4, -4, -1, 30, 9, 5
CC1CC(C)CN(C(=O)C(C)N2CCN(S(=O)(=O)c3ccc(Br)s3)CC2)C1 (stereo unspecified)
 : 22, nt, 2, nt, 2, nt, 13, 2
O=C(c1ccc(CSc2ccc(Cl)cc2)cc1)N1CCCC1
 : 19, 3, 7, 13, 3, 8, 1, 9
Cc1onc(-c2ccccc2Cl)c1C(=O)Nc1nnc(Cc2ccc(Cl)cc2)s1
 : -16, 0, 3, 1, 8, -9, 15, 4
CCOC(=O)c1c(NS(C)(=O)=O)sc2c1CCC(C)C2 (stereo unspecified)
 : 14, -2, -4, -1, 0, -8, -3, 6
O=C(CCNC(=O)C1CCN(S(=O)(=O)c2ccccc2)CC1)NCc1ccccc1Cl
 : 9, 2, 1, 4, 2, -4, 5, 3
O=C(O)CC/C(=N\Nc1ccc(S(=O)(=O)N2CCOCC2)cc1[N+](=O)[O-])c1cccs1
 : 23, 6, 3, 16, -3, 12, 13, 18
O=C(CSc1nnc(SCc2ccccc2)s1)NNC(=S)Nc1ccccc1
 : 11, -2, -2, 8, 1, 8, 10, 10
O=C(CSc1nnc(COc2ccc(Cl)cc2)o1)NC1CCCCC1
 : 34, 2, 0, 1, 6, -8, 8, 8
CCCCOc1ccc(C(=O)NCCCC(=O)N2CCCCC2)cc1
 : 11, 1, -1, 1, 10, -4, -1, -1
CCOCC(=O)Nc1nnc(COc2ccc(Cl)cc2)s1
 : -5, 0, -5, 7, 4, 26, -5, 7
COc1ccc(OC)c(NC(=O)COC(=O)CSc2ccc(Cl)cc2)c1
 : 10, 0, 0, 0, 2, 0, 6, 20
N#Cc1c(-c2ccc(Cl)cc2)c(-c2ccc(Cl)cc2)nn(CCO)c1=O
 : nt, nt, nt, nt, 7, nt, 2, nt
Cc1ccc(CSc2nnc(NC(=O)C3=COCCO3)s2)cc1
 : 6, -2, -10, -5, 12, nt, 9, 3
CCCN(CC)c1ncnc2[nH]ncc12
 : nt, nt, nt, nt, 2, nt, 7, nt
Cc1ccc([C@@H]2CC=C(C(=O)O)[C@H](c3ccc(Br)cc3)N2S(=O)(=O)c2ccccc2C)cc1
 : -4, nt, 0, nt, -7, nt, 7, 8
O=C(NNS(=O)(=O)c1ccc(Cl)cc1)c1sccc1-n1cccc1
 : 2, 4, -5, 8, 6, 2, 11, 5
COc1cc(OC)cc(C(=O)OCC(=O)NCc2ccco2)c1
 : 1, -3, -3, -1, -2, nt, 6, 3
Cc1ccc(S(=O)(=O)N2CCN(C(C)C(=O)Nc3ccccc3-c3ccccc3)CC2)cc1 (stereo unspecified)
 : 20, -2, -3, 4, 3, 6, -3, 2

# 4 of the compounds above, field by field.
> O=C(O)CC/C(=N\Nc1ccc(S(=O)(=O)N2CCOCC2)cc1[N+](=O)[O-])c1cccs1
  PREPL inhibitor: 23; LYPLA1 inh: 6; PAD4 inh: 3; LYPLA2 counter: 16; PAFAH1B3 inh: -3; GSTO1 counter: 12; PAFAH2 FP inh: 13; pPAFAH inh: 18

> O=C(CSc1nnc(SCc2ccccc2)s1)NNC(=S)Nc1ccccc1
  PREPL inhibitor: 11; LYPLA1 inh: -2; PAD4 inh: -2; LYPLA2 counter: 8; PAFAH1B3 inh: 1; GSTO1 counter: 8; PAFAH2 FP inh: 10; pPAFAH inh: 10

> O=C(CSc1nnc(COc2ccc(Cl)cc2)o1)NC1CCCCC1
  PREPL inhibitor: 34; LYPLA1 inh: 2; PAD4 inh: 0; LYPLA2 counter: 1; PAFAH1B3 inh: 6; GSTO1 counter: -8; PAFAH2 FP inh: 8; pPAFAH inh: 8

> CCCCOc1ccc(C(=O)NCCCC(=O)N2CCCCC2)cc1
  PREPL inhibitor: 11; LYPLA1 inh: 1; PAD4 inh: -1; LYPLA2 counter: 1; PAFAH1B3 inh: 10; GSTO1 counter: -4; PAFAH2 FP inh: -1; pPAFAH inh: -1

# Returning to the listing with the 2 entries that preceded the break.
# Every second line gives: PREPL inhibitor, LYPLA1 inh, PAD4 inh, LYPLA2 counter, PAFAH1B3 inh, GSTO1 counter, PAFAH2 FP inh, pPAFAH inh
COc1cc(OC)cc(C(=O)OCC(=O)NCc2ccco2)c1
 : 1, -3, -3, -1, -2, nt, 6, 3
Cc1ccc(S(=O)(=O)N2CCN(C(C)C(=O)Nc3ccccc3-c3ccccc3)CC2)cc1 (stereo unspecified)
 : 20, -2, -3, 4, 3, 6, -3, 2
Cc1cc(OCc2cccc(S(=O)(=O)N3CCOCC3)c2)ccc1Cl
 : 24, -1, -2, 0, -2, nt, 4, 1
Cc1cc(NC(=O)CCSc2ccc(Cl)cc2)no1
 : 9, -1, 1, 8, 4, 1, -1, 8
Nc1cc(=O)[nH]c(SCc2ccc(Cl)cc2)n1
 : 7, 1, 2, 6, 6, 8, -5, 8
Cc1ccc(SCc2cn3ccccc3n2)cc1
 : 4, -1, 6, -2, 7, 11, 4, -1
CCC(C)(C)c1ccc(OCCN2C(=O)NC(C)(C)C2=O)cc1
 : 4, -3, 1, -2, 8, 3, 3, 9
Cc1nc(CSc2ccc(Br)cc2)cs1
 : -11, 4, 0, 3, 7, 1, -1, 5
ON=C(CCc1ccccc1)CCc1ccccc1
 : nt, nt, nt, nt, 0, nt, -2, nt
Cn1c(C(=O)NCCC2=CCCCC2)cc2c(=O)n3ccccc3nc21
 : 3, 2, -2, 0, -10, 5, 5, 7
Cc1ccsc1/C=N/NC(=O)CN1CCN(S(=O)(=O)c2ccc(Br)cc2)CC1
 : -3, -1, 5, 6, 10, 5, 4, 3
CC(C)CNC(=S)NC(=O)c1ccc(Cl)cc1Cl
 : 3, -8, -3, -5, -1, -4, 6, 6
CC(NS(=O)(=O)c1cccc(C(=O)O)c1)C12CC3CC(CC(C3)C1)C2 (stereo unspecified)
 : nt, nt, nt, nt, 13, nt, 7, nt
O=C(CCCSc1ccc(Cl)cc1)Nc1ccccc1O
 : -5, -1, -1, 3, -2, 3, -6, 8
Cc1ccc(SCc2ccc(C(=O)N3CCCCC3)cc2)cc1
 : 10, 3, -3, 3, 5, -3, 3, 9
COCCN(C(=O)COC(=O)CSc1ccc(Cl)cc1)c1c(N)n(CC(C)C)c(=O)[nH]c1=O
 : nt, nt, nt, nt, 0, nt, 3, nt
O=C(CCc1nnc(C2(c3ccc(Cl)cc3)CCC2)o1)NCCCn1cccn1
 : -5, -3, 1, 6, -1, 1, 1, 5
CC(OC(=O)C1CCN(S(=O)(=O)c2ccc(Cl)cc2)CC1)C(=O)N1CCc2ccccc21 (stereo unspecified)
 : 0, 0, -4, 5, 6, -1, 6, 4
CCCCOc1ccc(C(=O)N2CCCC2)cc1
 : 5, 0, 2, -2, -6, 7, -7, 6
O=C1CSC2(N1)C1CC3CC(C1)CC2C3 (stereo unspecified)
 : 0, 0, 6, 0, 10, -7, 1, 6
Nc1nc(-c2ccco2)nn1S(=O)(=O)c1ccc(Cl)cc1
 : -5, 1, -4, 1, 1, 6, -4, 3
O=C(c1ccc([N+](=O)[O-])cc1)N1CCSC1c1ccc(Br)cc1 (stereo unspecified)
 : -6, 3, -7, 3, 4, -2, -1, -1
CCOc1ccc(NC(=O)CN(C)C(=O)c2cccnc2Sc2ccc(C)cc2C)cc1OCC
 : nt, nt, nt, nt, 2, nt, 9, nt
O=C(Nc1ncc(S(=O)(=O)c2ccc([N+](=O)[O-])cc2)s1)c1cccnc1
 : 11, -6, 2, -10, 12, -3, -8, -4
COc1ccc(CNC(=O)C2CC(c3ccc(OC)cc3)=NO2)cc1 (stereo unspecified)
 : 13, 2, -3, 6, -8, 3, -9, 1
Cc1ccc(Cc2c[nH]c(=S)s2)cc1
 : -2, 2, 2, -4, 5, 4, 3, 3
O=S1(=O)CCOC[C@H](Cc2ccccc2)N1Cc1ccc(Cl)cc1
 : -5, 0, 0, -4, 8, 3, -13, 3
CCC(NC(=S)NC1CCCCC1)c1ccc(C)cc1 (stereo unspecified)
 : nt, nt, nt, nt, 5, nt, 7, nt
Cn1nc(C(F)(F)F)cc1-c1ccc(/C=C(\C#N)C(=O)c2ccccc2)s1
 : -5, 1, 0, -3, -2, -3, 20, 7
O=C(NCC1(c2ccccc2)CCCC1)c1ccccc1
 : -6, 9, 3, 5, -1, 4, 3, 3
O=C(Nc1ccc(F)cc1)c1ccc(CSc2ccc(Cl)cc2)o1
 : -20, -8, 2, -4, 7, -1, 0, -3
CN(CC(=O)Nc1ccc(Cl)cc1)C(=O)CCNC(=O)c1ccc(Cl)cc1
 : -3, -2, -9, -1, 2, nt, -4, -1

# Reformatted: results already given
structure,PREPL inhibitor,LYPLA1 inh,PAD4 inh,LYPLA2 counter,PAFAH1B3 inh,GSTO1 counter,PAFAH2 FP inh,pPAFAH inh
CCC(C)(C)c1ccc(OCCN2C(=O)NC(C)(C)C2=O)cc1,4,-3,1,-2,8,3,3,9
Cc1ccc(SCc2ccc(C(=O)N3CCCCC3)cc2)cc1,10,3,-3,3,5,-3,3,9
Nc1cc(=O)[nH]c(SCc2ccc(Cl)cc2)n1,7,1,2,6,6,8,-5,8

# Screening results deposited in PubChem by The Scripps Research Institute Molecular Screening Center.
